Bioassay records deposited in PubChem by National Center for Advancing Translational Sciences (NCATS).
D2 agonist: agonists of human D2 dopamine receptor (beta-arrestin). P14416. DiscoveRx PathHunter D2 beta-arrestin, luminescence, 90 min; 100% = 57 uM dopamine signal. activation, % (concentration not given with the values). hit rate 0.084% among 360,000. AID 624465; in the data active = activation above about 40%; inconclusive = about 15% to 40%; inactive = below about 15%; note: compound concentration not given in the record; the text of the record calls up to 30% inactive
Target sequence (P14416 whole entry, looked up): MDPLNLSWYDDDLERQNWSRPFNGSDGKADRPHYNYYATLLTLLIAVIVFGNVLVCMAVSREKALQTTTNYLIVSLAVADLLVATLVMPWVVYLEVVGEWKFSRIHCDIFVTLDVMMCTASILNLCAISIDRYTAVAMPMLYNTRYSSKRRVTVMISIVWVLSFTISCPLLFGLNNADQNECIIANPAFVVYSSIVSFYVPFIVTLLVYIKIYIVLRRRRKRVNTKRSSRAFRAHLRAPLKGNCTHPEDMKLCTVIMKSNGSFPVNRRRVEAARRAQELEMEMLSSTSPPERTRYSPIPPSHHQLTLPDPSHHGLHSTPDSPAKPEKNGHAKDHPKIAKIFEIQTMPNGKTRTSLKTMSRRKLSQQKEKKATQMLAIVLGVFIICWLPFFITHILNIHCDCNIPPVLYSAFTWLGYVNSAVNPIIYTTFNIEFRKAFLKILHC
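DiscoveRx PathHunter D2 beta-arrestin cells (2,100/well) attached overnight, then compound-stimulated 90 min at 37 C in HBSS/10 mM HEPES/0.1% Tween-20 buffer; beta-galactosidase complementation read by luminescence after 1 h at ambient temperature. Dopamine 57 uM final (EC100) as control.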
gsp agonist: agonists of gsp mutant (McCune-Albright syndrome); hit rate 0.13% among 340,000; gsp mutant cells, cAMP HTRF, 30 min; control for the full effect not named in the record; AID 624287; Potency, µM (series often up to 76.9 µM), for the others: at the highest dose activation (cAMP increase), hits mostly activators; active = well fitted activation curve with a large enough effect; inconclusive = small, poorly fitted or top-dose-only effect, or another doubt; inactive = no such curve, though single readings can be large or run the other way; cell line not stated here;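 note: phosphodiesterase inhibitor Ro 20-1724 added with compounds to block cAMP breakdown; potency is the fitted concentration of half-maximal effect; nearly all actives have a fitted effect of over 60% in size; about a fifth of the inactives were tested at one dose only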
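Cells in DMEM/10% FBS with G418 were pretreated with compounds in DMSO plus […] (300 uM stock) for 30 min at 37C. cAMP was measured by HTRF (cAMP-d2 plus anti-cAMP antibody-K) after 30 min at room temperature.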
Six1-Eya2 blk: inhibitors of human Six1/Eya2 interaction. Q15475+O00167. AlphaScreen GST-Six1/His-Eya2 binding, biochemical; active compounds read low; control for the full effect not named in the record. activity change, % (no concentration beside the values). hit rate 0.56% among 360,000. AID 651725; in the data active = activity change below about -65%; inconclusive = about -30% to -65%; inactive = above about -30%; note: % is set by controls: 0 for no effect and ±100 for the full control effect
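AlphaScreen with GST-Six1 and His-Eya2 (5X mix: 250 nM and 500 nM), glutathione donor and nickel acceptor beads; buffer 50 mM Tris pH 8.0, 300 mM NaCl, 1 mM TCEP; 1 h at 37 C in the dark.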
CtBP-E1A blk: blocks the CtBP interaction with E1A. AlphaScreen GST-E1A/His-CtBP binding, 1536-well; active compounds read low; control for the full effect not named in the record. activity change, % (no concentration beside the values). hit rate 0.49% among 340,000; in the data active means activity change below about -65%; inconclusive means about -30% to -65%; inactive means above about -30%; note: % is set by controls: 0 for no effect and ±100 for the full control effect
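AlphaScreen with 125 nM GST-E1A and 125 nM His-CtBP (5X stocks) in Tris pH 8.0, 300 mM NaCl, BSA, Tween 20, TCEP. Compounds preincubated 2 h at 37 deg C, then glutathione donor/nickel acceptor beads added for 1 h at 37 deg C in dark.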
D2 potentiator: potentiates the human D2 dopamine receptor allosterically; P14416; DiscoveRx D2 beta-arrestin cells, luminescence, 90 min; 100% = 57 uM dopamine signal; potentiation, % (no concentration beside the values); hit rate 0.23% among 360,000; AID 624464; active = potentiation of 50% or more; inconclusive = 30% to 50%; inactive = 30% or less;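 note: compound concentration not given in the record; tested on top of an EC20 dose of dopamine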
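PathHunter D2 cells, attached overnight at 37 deg C, received compound in DMSO plus dopamine at EC20 (50 nM final) for 90 min at 37 deg C. Beta-arrestin recruitment was read as luminescence after 1 h with detection reagent at ambient temperature.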
gsp antagonist: gsp mutant antagonism; Potency, µM (titrated, usually from 76.9 µM), for the others: top-dose activity change, negative = inhibition, most hits filed as inhibitors; AID 624288; gsp-mutant cells, cAMP HTRF, 30 min; control for the full effect not named in the record; hit rate 0.4% among 340,000; active = falling curve of any shape with a large fitted effect; inconclusive = falling curve, mostly with a smaller effect; inactive = flat or rising curve; cell line not stated here;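 note: intracellular cAMP measured with PDE inhibitor Ro 20-1724 present during compound exposure; potency is the fitted concentration of half-maximal effect; % is set by controls: 0 for no effect and ±100 for the full control effect; nearly all actives have a fitted effect of over 65% in size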
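HTRF cAMP measurement after 30 min RT detection following 30 min, 37C compound treatment alongside […] (added as 300 uM solution) in G418-selected cells seeded at 2000/well and grown 16–24 h.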
The depositor's hits bear a star; ? = inconclusive; . = no result given; & = joins results of further samples; [ ] = another dose, or the depositor's remark.

SMILES | D2 agonist | gsp agonist | Six1-Eya2 blk | CtBP-E1A blk | D2 potentiator | gsp antagonist
O=C1Nc2ccccc2C1Cc1ccccc1 (stereo not drawn) | 2.5 | -7.6%[15.4 µM] | -10.7 | 1.6 | 0.9 | -1.3%
CC1(C)CC(=O)C2=C(C1)NCN(CCCN1CCOCC1)C2 | -1.6 | 0.0% | 11.6 | 8.4 | -2.7 | 0.6%
C/C=C/C(=O)Nc1cccc(C2=NOC3(C2)C[C@@H](C(N)=O)N(C(=O)c2cc([N+](=O)[O-])cc([N+](=O)[O-])c2C)C3)c1 (stereo partly drawn) | 5.4 | . | 4.5 | -0.5 | 8.0 | 4.5%
CCOc1ccc(Nc2cc(=O)[nH]c(=O)[nH]2)cc1 | 2.4 | -6.2% | 0.9 | . | 2.8 | 2.3%
CC(C(=O)Nc1ccccc1F)N1C(=O)c2ccccc2C1=O (stereo not drawn) | -2.4 | 11.8% | 5.3 | 4.0 | -4.9 | 2.3%
O=C(CSc1ccccc1C(=O)O)NC1CCCCCC1 | -0.9 | 6.2%[15.4 µM] | 5.3 | 10.1 | -3.3 | 0.3%
O=c1c2c(nc3nc(NCc4cccc(Cl)c4)[nH]n13)CCC2 | -2.9 | -7.0%[15.4 µM] | 0.1 | 3.5 | 1.8 | -0.9%
CN(Cc1ccccc1)C(=O)CN(C1CCCCC1)S(C)(=O)=O | -0.1 | -22.5% | 8.0 | 4.4 | -0.6 | 3.5%
O=C1CCCC(O)=C1N=Nc1ccc(C(=O)O)cc1 | 0.2 | ? | ? | -2.5 | -8.1 | 10.5%
C=CCOc1ccc(/C=C/C(=O)OCC(=O)N2CCN(C(C)=O)CC2)cc1 | -4.7 | 5.5% | -19.5 | -27.3 | -4.9 | -3.0%

Some of these compounds in order of their number in CtBP-E1A blk, highest first.
molecule	CtBP-E1A blk
CN(Cc1ccccc1)C(=O)CN(C1CCCCC1)S(C)(=O)=O	4.4
CC(C(=O)Nc1ccccc1F)N1C(=O)c2ccccc2C1=O (stereo not drawn)	4.0
O=C1Nc2ccccc2C1Cc1ccccc1 (stereo not drawn)	1.6

(listing goes on)
SMILES | D2 agonist | gsp agonist | Six1-Eya2 blk | CtBP-E1A blk | D2 potentiator | gsp antagonist
NNc1ccc(Cl)c(C(=O)O)c1 | -5.4 | ? | 3.6 | 4.9 | -9.8 | 2.9%
CCCC(=O)n1nc(-c2cccnc2)nc1N | -4.4 | 3.1% | -2.1 | 2.5 | -15.6 | 8.5%
Cc1nc(SCc2ccccc2C#N)n[nH]1 | -2.4 | 12.6% | 3.3 | . | 0.4 | 1.8%
COc1cc(CN2CCN(Cc3ccc(C)cc3)C(CCO)C2)ccc1O (stereo not drawn) | -1.9 | 14.1%[15.4 µM] | -1.1 | 11.6 | -50.1 | .
CCOC(=O)C1C(C(=O)OC)=C(c2ccc(OC)cc2)c2ccc(OC)cc2N1S(=O)(=O)C(F)(F)F (stereo not drawn) | -1.2 | . | -1.7 | -1.6 | -2.5 | -6.2%
C=CCn1c(=O)c(C(=O)OCC)c(O)c2ccccc21 | -1.4 | -59.7%[inhibitor] | 10.1 | . | 2.5 | -21.2%
COc1ccc(C(=O)Nc2cc(C)on2)cc1OC | -0.7 | 2.8% | -8.8 | . | -2.5 | 7.9%
O=C(NC1=NCCS1)C12CC3CC(CC(C3)C1)C2 | 3.0 | -14.7% | 11.7 | 1.8 | -8.8 | 0.4%
NCCCS(=O)(=O)O | -2.6&2.0 | . | 1.6&-2.3 | 4.2&-1.4 | -1.1&-9.8 | -1.1%&6.8%
N#Cc1ccc(S(=O)(=O)NCC(=O)OCC(=O)N2CCCC2=O)cc1 | -2.7 | -0.2%[15.4 µM] | 23.5 | -0.2 | -4.3 | -9.8%
CCOc1ccc(C(=O)N(Cc2ccccc2)c2cccc(C)c2)cc1OC | 2.3 | 2.6% | -0.6 | -1.6 | 24.2 | -10.3%
CN(C)C(=O)C[n+]1ccc(C(N)=O)cc1 | -0.3 | -1.2% | -2.9 | . | -18.3 | 2.5%
CCOC(=O)Cc1csc(NC(=O)CSc2nnc(-c3ccncc3)n2Cc2ccco2)n1 | 1.3 | ? | 4.5 | -7.0 | 2.4 | -21.3%
O=C1CC(NC2CCN(C(=O)c3cccc(F)c3)CC2)C(=O)N1 (stereo not drawn) | -0.3 | 0.5%[15.4 µM] | 3.5 | 4.7 | 9.1 | 8.9%
COc1ccc(CCNS(=O)(=O)c2ccccc2)cc1OC | -0.4 | -0.9% | 3.7 | 6.9 | -13.8 | 13.2%
C[N+](C)(C)CCN1C(=O)CSC1=O | 0.1 | -5.5%[15.4 µM] | 4.3 | -5.3 | -1.3 | 3.4%
CN1CCN(C(=O)C2CC(c3c(F)cccc3Cl)=NO2)CC1 (stereo not drawn) | -0.6 | -5.1% | -0.5 | 8.5 | -13.0 | -0.1%
O=S(=O)(NC(=S)NC1CCCCC1)c1cccs1 | -4.2 | 21.5%[15.4 µM] | 2.2 | 4.4 | -19.6 | 8.5%
COc1ccccc1NC(=O)Nc1nc(CC(=O)Nc2cccc(F)c2)cs1 | 7.5 | -3.8%[15.4 µM] | -4.6 | -18.2 | -12.5 | -18.8%
N#C/C(=C\c1ccc(OCc2cccc(C(=O)O)c2)cc1)C(=O)NCc1ccco1 | -1.0 | -6.3% | 0.9 | -13.6 | -1.7 | ?
CCOC(=O)C(C)Sc1ccc2nnc(CCNS(=O)(=O)c3ccc(C)cc3)n2n1 (stereo not drawn) | -18.9 | -3.1% | -3.8 | 10.2 | -11.3 | -25.4%
Cc1ccc2nc(NC(=S)NC(=O)c3cccs3)sc2c1 | -0.4 | 15.2% | 8.1 | -1.3 | 2.0 | 10.8%
Cc1cc(-c2ccccc2)n2nc(C)c(-c3ccccc3)c2n1 | -2.9 | -5.8% | 6.2 | 14.1 | 4.3 | 4.1%[15.4 µM]
Cc1ccc(C)c(Oc2cc(F)nc(N)n2)c1 | -3.0 | -2.4%[15.4 µM] | -0.8 | -1.8 | -5.8 | 13.4%
O=C(CSc1nnc(-c2ccco2)n1Cc1ccccc1)NC(=O)NCc1ccco1 | -4.6 | -20.7% | -14.7 | 12.1 | -17.0 | -10.2%
O=C(Cc1ccccc1)N/N=C\c1ccc(Br)o1 | -1.2 | 26.0% | -1.1 | -3.9 | -22.3 | 9.0%
Cc1cccc(NC(=S)Nc2ccc(Oc3ccccc3)cc2)n1 | 2.5 | -1.1% | -7.0 | 0.8 | 14.1 | 0.2%
Cc1cccc(C)c1NC(=O)CN(C)C(=O)CC1OC(=O)c2ccccc21 (stereo not drawn) | -3.0 | -0.7%[15.4 µM] | 8.5 | -0.3 | -0.5 | 4.5%
CC(=O)c1sc(Nc2ccccn2)nc1C | -0.8 | ? | -10.9 | -4.4 | -2.4 | 2.3%[15.4 µM]
C=CCc1c(C)nc(SCC(N)=O)[nH]c1=O | -2.8 | -18.5% | 5.6 | 11.8 | -13.3 | -11.0%
COc1ccc(NS(=O)(=O)c2cc(NS(=O)(=O)c3cc(C(=O)O)ccc3OC)ccc2C)cc1 | 1.3 | -4.9% | -1.2 | -0.7 | -2.5 | 5.7%
CC(NC(=O)c1cccc(Cl)c1)C1CC2CCC1C2 (stereo not drawn) | -4.7 | -1.9%[15.4 µM] | 12.4 | 3.2 | -9.7 | 0.2%
CN1C2C=C(N(CCc3c[nH]c4ccccc34)C(=O)c3ccc(Cl)cc3)CC1CC2 (stereo not drawn) | -3.1 | 2.3% | -17.7 | -3.4 | -18.5 | -4.5%
CC(=O)c1cccc(NC(=O)COC(=O)CCC(=O)c2ccc(F)cc2)c1 | -0.9 | -2.2%[15.4 µM] | -1.9 | 8.5 | -29.2 | 6.1%
O=C(c1cc(COc2ccc(F)cc2Cl)on1)N1CCCC(c2ccccc2)C1 (stereo not drawn) | 3.7 | -5.4%[15.4 µM] | 2.6 | . | -3.1 | 4.3%
Cc1cccc(OCC(=O)NCCCNC(=O)c2ccc(C)nc2)c1 | -4.8 | 27.4%[15.4 µM] | 2.1 | 1.4 | -1.7 | 12.4%
Cc1ccc(NC(=O)COc2ccc(/C=C3/NC(=O)NC3=O)cc2)cc1 | -3.5 | 6.2% | -2.7 | -1.9 | -10.7 | 7.6%
CC(=O)c1ccc(NC(=O)N2CCc3ccccc3C2)cc1 | -4.8 | 1.1%[15.4 µM] | 2.9 | 1.1 | -6.6 | -3.9%
CC(C)(Oc1ccc(Cl)cc1)C(=O)NCCN1C(=O)S/C(=C/c2cccnc2)C1=O | -1.3 | 0.0% | -2.3 | 14.5 | -20.4 | -2.4%
COc1cc(NC(=O)c2cc(OC)c(OC)c(OC)c2)c(OC)cc1NC(=O)CN1CCCCC1 | -2.2 | 0.0% | -12.3 | -1.3 | -10.4 | ?
O=C(CSc1nc2ccccc2c(=O)n1-c1ccc(F)cc1F)Nc1ccc2c(c1)CCC2 | 0.5 | -39.7%[inhibitor] | -1.4 | . | -5.2 | -1.2%
N#Cc1ccccc1CSCCNC(=O)Cc1c(F)cccc1Cl | -9.6 | -48.5%[inhibitor] | 5.0 | 1.4 | -7.0 | -23.0%
Cc1ccc(O)c(C(=O)/C=C/c2ccc3c(c2)OCCCO3)c1 | -6.7 | 20.6%[15.4 µM] | 3.3 | 1.7 | -2.4 | -6.8%
COc1cc(C)c(Cl)cc1S(=O)(=O)NCc1ccco1 | -3.9 | 10.3% | -4.1 | 1.3 | 7.3 | -2.5%
COc1ccc(-c2ccc(CN3C(C(C)C)C(=O)N(Cc4cn(CCC5OCCO5)nn4)CCS3(=O)=O)cc2)cc1OC (stereo not drawn) | -1.1 | -8.5% | -13.9 | -9.4 | -9.2 | .
Cn1nccc1C(=O)N1CCCC(C(=O)c2ccc(Oc3ccccc3)cc2)C1 (stereo not drawn) | -0.9 | -10.0% | -0.2 | 3.4 | -11.8 | -24.6%
Cc1ccc(-c2cc(C(=O)N/N=C/c3ccco3)[nH]n2)cc1 | 3.2 | -38.7%[inhibitor] | -10.4 | -7.6 | -14.3 | -3.3%
Cc1ccccc1N=C1C(=O)Nc2ccccc21 | -9.2 | -21.9% | 4.5 | 7.0 | -13.0 | 9.4%
CN(CC(=O)O)S(=O)(=O)/C=C/c1ccccc1 | -5.0 | 4.5% | 0.1 | -12.1 | -2.6 | -2.3%
Cc1ccc(OCCCCN2CCc3ccccc3C2)cc1 | 7.9 | -49.2%[inhibitor] | 8.5 | 12.9 | -25.6 | 1.0%
O=C(N/N=C/c1c(Cl)nc2ccccn2c1=O)c1cccnc1 | -1.1 | ? | -68.8* | -14.0 | -9.2 | -8.2%
CCOCCCNc1ccc(N2C(=O)CCCC2=O)cc1[N+](=O)[O-] | -3.7 | ? | 3.1 | -7.0 | -18.7 | 3.2%

No enrichment for hits (roughly 1.4% active in at least one column).
